Screening data deposited in PubChem by several laboratories.
UUG fidelity = modulators of start codon recognition fidelity in yeast; activity score, % at 18.7 µM; S. cerevisiae UUG-firefly luciferase reporter, luminescence/redox ratio; 350,000 tested, 0.13% active;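 active = replicate mean at a twofold rise or more, about +100% in these data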;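 also: firefly luciferase made from a UUG start codon reports start codon fidelity; reporter light over untreated wells divided by growth signal over untreated wells; some hits fall short of that in this replicate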
CSC inhib = cancer stem cell inhibition; inhibition, % at 7.5 µM; 300,000 tested, 1.1% active; cancer stem cell-like cells viability, luminescence;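 active = mean at 75% or more and at least half the replicates too; inconclusive = mean and replicates disagree; tested in HMLE shEcad cells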;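 also: 0% = median of negative and 100% = median of positive control wells; the first replicate is given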
HIV Env fusion = HIV envelope-mediated fusion inhibition | inhibition, % at 12.3 µM | AID 651610 | 360,000 tested, 1.1% active | HeLa-JRFL Env/CEM21 cell fusion, luciferase;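 active = mean replicate inhibition score of at least 50 and every replicate individually at or above 50; inconclusive = only one of the two criteria met; inactive = mean below 50 and not all replicates reaching 50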;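 also: 0% = plate neutral controls and 100% = maraviroc near 300 nM; one replicate is shown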
Rce1 inh = blocks yeast Ras-converting enzyme | Q03530 | yeast membranes, quenched prenylated peptide cleavage fluorescence | calls only | 290,000 tested, 0.27% active;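 active = fall in fluorescence gain of 50% or more versus controls, with final raw signal at or below 3038400; inconclusive = same 50% fall but final raw signal above 3038400; inactive = fall in fluorescence gain under 50%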;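 also: plate controls were neutral control wells for no effect and wells lacking membranes for full effect; tested at 10 µM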
PABP FP inh = blocks human PABP binding to poly(A) RNA; P11940; fluorescence polarization; inhibition, % at 35 µM; AID 2014; 290,000 tested, 1% active;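 active = 50% or more with normal probe brightness, or confirmed in later tests; inconclusive = above 50% with abnormal brightness, or retests that disagree; inactive = below 50% or failed in later tests; about a fifth of its hits are not listed in these tables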;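 also: calls also rest on retests at 20 µM and on dose response follow-up; controls were probe without protein and protein plus probe with vehicle; some compounds called inactive have numbers as strong as hits; many hits fall short of the cut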
Target sequence (P11940 whole entry, looked up): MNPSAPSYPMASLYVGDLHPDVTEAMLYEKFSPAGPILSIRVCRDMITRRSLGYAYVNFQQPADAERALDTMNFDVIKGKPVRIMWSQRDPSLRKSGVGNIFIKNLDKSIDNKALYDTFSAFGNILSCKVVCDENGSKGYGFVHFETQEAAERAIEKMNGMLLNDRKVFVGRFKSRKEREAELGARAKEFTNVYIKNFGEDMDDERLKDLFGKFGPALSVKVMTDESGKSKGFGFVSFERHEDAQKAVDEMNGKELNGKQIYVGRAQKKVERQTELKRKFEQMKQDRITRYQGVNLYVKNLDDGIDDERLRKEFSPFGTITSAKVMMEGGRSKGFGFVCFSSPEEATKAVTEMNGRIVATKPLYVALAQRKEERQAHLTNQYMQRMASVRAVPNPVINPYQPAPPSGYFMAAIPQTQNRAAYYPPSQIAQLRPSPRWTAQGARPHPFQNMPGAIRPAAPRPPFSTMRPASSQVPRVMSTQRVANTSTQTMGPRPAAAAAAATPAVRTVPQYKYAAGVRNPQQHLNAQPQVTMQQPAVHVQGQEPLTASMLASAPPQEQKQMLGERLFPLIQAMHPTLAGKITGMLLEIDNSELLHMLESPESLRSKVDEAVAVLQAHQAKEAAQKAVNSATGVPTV
eIF4H inh = inhibitors of RNA binding by human eIF4H. AID 2012. 290,000 tested, 0.94% active. inhibition, % at 35 µM. Q15056. eIF4H fluorescence polarization binding assay;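 active = 50% or more with normal probe brightness, or confirmed in later tests; inconclusive = above 50% with abnormal brightness, or retests that disagree; inactive = below 50% or failed in later tests; about a fifth of its hits are not listed in these tables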;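 also: calls also rest on retests at 20 µM and on dose response follow-up; 0% = protein and probe with vehicle and 100% = probe without protein; strong numbers were not always called active; many hits fall short of the cut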
MT1-MMP act inh = inhibitors of human MT1-MMP activation | P50281 | HT1080 RFP-PRO-GFP cells, GFP/RFP ratio fluorescence, overnight; percent of plate control window, DMSO zero | GFP/RFP ratio change, % at 20 µM | 360,000 tested, 0.061% active | AID 651647;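 active = GFP/RFP ratio change of at least 30% with cell ATP level not reduced by more than half and red fluorescence within 50% of control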; also: strong numbers were not always called active
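Assay system – RFP-PRO-GFP reporter HT1080 cells · Compound dosing – single dose of 20 µM compound, 1% DMSO final · Incubation – overnight compound exposure at 37 °C · Measure – GFP/RFP fluorescence ratio · Benchmarks – DMSO wells and RFP-L50D-GFP cells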
MT1-MMP act inh RFP = recorded beside MT1-MMP act inh, whose call it bears; RFP signal change, %; measured here: RFP expression control read;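 0 = vehicle wells; hits needed this value within 50% of zero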
* marks the source's active call; other numbers are inactive results; i = inactive; ? = inconclusive; nt = not tested or not shown; & = joins results of further samples.

No.	Compound	UUG fidelity	CSC inhib	HIV Env fusion	Rce1 inh
1	C[C@H](CO)N1C[C@H](C)[C@@H](CN(C)Cc2ccc(F)cc2)Oc2ncc(Br)cc2C1=O	-10&-5	nt	-32	nt
2	O=C(CSCc1ccc(Br)cc1)Nc1ccccc1C(=O)N1CCOCC1	-7	5	4	i
3	CCC(C)NC(=S)Nc1ccc(F)cc1 (stereo unspecified)	-17	7	8	i
4	CC(C)N(C(=O)[C@H]1CC(CC(=O)NC(C)(C)C)C(=O)N2CCc3c([nH]c4ccccc34)[C@]12C)C(C)C (stereo partly specified)	-15	nt	-12	nt
5	Cc1ccc(NC(=O)Nc2nnc([C@H]3C[C@H](O)[C@@H](CO)O3)s2)cc1	-17	nt	10	nt
6	CS(=O)(=O)N1CCC(C(=O)NCc2ccc(Cl)cc2)CC1	-11	10	-18	i
7	CCCS(=O)(=O)N1CCC(C(=O)NCc2ccc3c(c2)OCO3)CC1	nt	-3	3	i
8	Cc1ccc(C(=O)COC(=O)CNC(=O)c2cccs2)cc1	-8	-10	nt	i
9	CN1CC(=O)N(CC(=O)Nc2ccc(OCc3ccccc3)cc2)C1=O	-6	9	nt	nt
10	N#CC(C(=O)C12CC3CC(CC(C3)C1)C2)c1nc2ccccc2[nH]1 (stereo unspecified)	4	44	nt	i
11	Cc1nc2c(OCc3ccc(F)cc3)cccn2c1N(C)C(=O)CCC1CCCC1	-14	nt	26	nt
12	CCCCCCCCCCn1c2c(c(=N)c3c1CCC3)CCC2	-6	91*	69*	i
13	O=c1c(O[C@H]2O[C@@H](CO)[C@H](O)[C@@H](O)[C@@H]2O)c(-c2ccc(O)cc2)oc2cc(O)cc(O)c12	-17	-13	0	nt
14	O=C(CSc1nnc(-c2ccco2)o1)Nc1ccccc1Cl	-9	nt	0	i
15	Cc1ccc(N/C(N)=N/c2nc(C)cc(C)n2)cc1	-8	11	-37	i

No.	PABP FP inh	eIF4H inh	MT1-MMP act inh	MT1-MMP act inh RFP
1	nt	nt	2	4
2	3	-5	6	1
3	7	5	3	-3
4	nt	nt	0	-3
5	nt	nt	-1	6
6	-8	-4	1	3
7	-2	-11	-2	0
8	0	5	3	2
9	nt	nt	-1	0
10	-3	-3	-37	-26
11	nt	nt	-3	-14
12	-4	-13	-26	-31
13	nt	nt	6	7
14	-6	-15	-2	0
15	-9	12	-1	1

Next section:
No.	Compound	UUG fidelity	CSC inhib	HIV Env fusion	Rce1 inh
16	O=C(NCCc1ccc(Cl)cc1)c1ccc(CS(=O)Cc2ccc(Cl)cc2)o1 (stereo unspecified)	-6	-22	28	i
17	Cn1c(=O)c2c(ncn2CC(=O)N2CCN(c3ccccc3)CC2)n(C)c1=O	-9	-11	nt	i
18	COc1ccc(-n2nnnc2/C=C\Nc2ccccc2C(=O)c2ccccc2)cc1	-6	24	?	i
19	Cc1ccc(C)c(OCC(=O)Nc2ccccc2N2CCCC2)c1	-7	22	8	i
20	COCCCNC(=O)c1ccc2c(c1)ncn2-c1ccccc1OC	-22	2	nt	i
21	CNC(=O)CC1C(=O)N(C)C(=S)N1NC(=O)c1ccc(Cl)cc1 (stereo unspecified)	-1	5	nt	i
22	CCOC(=O)C(=CNc1nc(-c2ccc3ccccc3c2)cs1)C(=O)OCC	-17	40	-9	i
23	COc1ccc(C(C)=O)cc1Cn1c(C)c(C(=O)NCC(C)C)sc1=O	-14	nt	0	nt
24	CCn1cc(S(=O)(=O)c2ccc(C)cc2)[nH]c1=O	nt	-11	-25	i
25	COc1ccc(/C(C)=N/NC(=O)c2ccncc2)cc1	-7	-9	27	i
26	Oc1c(/C=C/C=C/C=Nc2ccccc2)sc(=S)n1Cc1ccccc1	-8	-6	-162	i
27	O=C(NCC1CCCCC1)c1cccc(S(=O)(=O)NCc2cccnc2)c1	nt	-9	4	i
28	CCCn1c(=N)n(CC(O)c2ccco2)c2ccccc21 (stereo unspecified)	-12	4	nt	i
29	CCOc1ccc(Cl)cc1S(=O)(=O)N1CCC(C(=O)N2CCCC2)CC1	-6	-16	nt	i
30	N/C(=N\OS(=O)(=O)c1ccc(Cl)cc1)c1ccncc1	-18	-10	nt	i
31	CCn1ccnc1CN1CCCCC1C(=O)Nc1ccc(Oc2cccnc2)cc1 (stereo unspecified)	-15	23	nt	i
32	CCC1Oc2ccc(C)cc2N(CC(=O)N(Cc2cccnc2)Cc2cccc(F)c2)C1=O (stereo unspecified)	nt	3	-18	i

No.	PABP FP inh	eIF4H inh	MT1-MMP act inh	MT1-MMP act inh RFP
16	-1	-10	2	-1
17	-5	3	0	1
18	-5	-4	-7	-16
19	-8	-5	4	5
20	13	9	2	3
21	8	-2	1	4
22	-9	-13	2	5
23	nt	nt	4	-2
24	1	0	0	5
25	-10	-15	-1	3
26	14	22	15	61
27	14	0	2	2
28	3	3	-13	-4
29	-9	-5	-2	0
30	7	7	1	1
31	-6	4	0	-5
32	-5	0	-8	-17

Sorted by heavy-atom count (smallest number first): part of the list above
No.	Compound	UUG fidelity	CSC inhib	HIV Env fusion	Rce1 inh
24	CCn1cc(S(=O)(=O)c2ccc(C)cc2)[nH]c1=O	nt	-11	-25	i
15	Cc1ccc(N/C(N)=N/c2nc(C)cc(C)n2)cc1	-8	11	-37	i
25	COc1ccc(/C(C)=N/NC(=O)c2ccncc2)cc1	-7	-9	27	i
28	CCCn1c(=N)n(CC(O)c2ccco2)c2ccccc21 (stereo unspecified)	-12	4	nt	i
21	CNC(=O)CC1C(=O)N(C)C(=S)N1NC(=O)c1ccc(Cl)cc1 (stereo unspecified)	-1	5	nt	i
19	Cc1ccc(C)c(OCC(=O)Nc2ccccc2N2CCCC2)c1	-7	22	8	i
20	COCCCNC(=O)c1ccc2c(c1)ncn2-c1ccccc1OC	-22	2	nt	i
23	COc1ccc(C(C)=O)cc1Cn1c(C)c(C(=O)NCC(C)C)sc1=O	-14	nt	0	nt
27	O=C(NCC1CCCCC1)c1cccc(S(=O)(=O)NCc2cccnc2)c1	nt	-9	4	i
22	CCOC(=O)C(=CNc1nc(-c2ccc3ccccc3c2)cs1)C(=O)OCC	-17	40	-9	i
18	COc1ccc(-n2nnnc2/C=C\Nc2ccccc2C(=O)c2ccccc2)cc1	-6	24	?	i
32	CCC1Oc2ccc(C)cc2N(CC(=O)N(Cc2cccnc2)Cc2cccc(F)c2)C1=O (stereo unspecified)	nt	3	-18	i

No.	PABP FP inh	eIF4H inh	MT1-MMP act inh	MT1-MMP act inh RFP
24	1	0	0	5
15	-9	12	-1	1
25	-10	-15	-1	3
28	3	3	-13	-4
21	8	-2	1	4
19	-8	-5	4	5
20	13	9	2	3
23	nt	nt	4	-2
27	14	0	2	2
22	-9	-13	2	5
18	-5	-4	-7	-16
32	-5	0	-8	-17
